Screens (PubChem BioAssay)
Bead autofluor: counter-screen for toxin protease inhibitors: compound fluorescence. compound autofluorescence counterscreen, microsphere flow cytometry; active compounds read high. fluorescence intensity (test concentration not listed). hit rate 3.1% among 360,000. AID 624483;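 active = at least 3 SD above the mean of all compounds, about 16000 in these data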;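 note: 100 nL of 1 mM stock went into each well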
* marks the source's active call; other numbers are inactive results.

SMILES	Bead autofluor
C[C@@H]1CN([C@@H](C)CO)C(=O)CCCn2nncc2CO[C@@H]1CN(C)S(=O)(=O)c1ccccc1F	3008
CC(=O)C1CCC2C3C=CC4=CC(=O)CCC4(C)C3CCC12C (stereo unspecified)	4378
CC(=O)Nc1cccc(-c2ccnc3c2CC(C(=O)NCc2ccc(F)c(F)c2)O3)c1 (stereo unspecified)	2754
CNc1nc(Oc2cccc(F)c2)c2sccc2n1	3473
COc1ccc(CC(=O)NNC(=S)NC(=O)c2cc(OC)c(OC)c(OC)c2)cc1	2769
C[C@H]1CN([C@@H](C)CO)C(=O)CCCn2cc(nn2)CO[C@@H]1CN(C)S(=O)(=O)c1ccc(-n2cccn2)cc1	3451
COc1cc(NC(=O)Nc2nc(C(N)CCc3ccccc3)cs2)cc(OC)c1OC (stereo unspecified)	3886
O=CNc1cc(-c2ccccc2Oc2ccccc2)cn2c(-c3ccc(F)cc3)cnc12	4071
OC(c1cccc(Cl)c1)c1ncc(-c2cccc(C(F)(F)F)c2)[nH]1 (stereo unspecified)	3916
Cc1ccc2nc(-c3ccc(C#N)cc3)c(Cc3ccccc3C(F)(F)F)n2c1	5920
CCOC(=O)C1(C)CCN1C(=O)c1ccc(-c2ccccc2)cc1 (stereo unspecified)	3868
CCOC(=O)c1ccc(NC(=O)c2nc[nH]c2C(=O)N[C@H](C)CO)cc1	3043
O=C(NCc1nnnn1-c1ccccc1)c1ccc2ccccc2c1	3924
O=C(O)CCCN1C(=O)C2C3CCC(C3)C2C1=O (stereo unspecified)	3621
Cc1nc2ccc(C(=O)NC(C)(C)C)cn2c1N(C)C(=O)CCc1ccccc1	3971
C[C@H]1CN([C@@H](C)CO)C(=O)c2cc(C3=CCCCC3)cnc2O[C@@H]1CN(C)C(=O)Cc1ccccc1	3320
COc1ccc(C(C)=O)cc1Cn1c(C)c(C(=O)NCc2cccc(Cl)c2)sc1=O	5261
C[C@H]1CN([C@@H](C)CO)C(=O)CCCn2nncc2CO[C@H]1CN(C)S(=O)(=O)c1ccc(Oc2ccccc2)nc1	3429
CC(=O)OC1C(O)C2=C3C4(C)C1C(C)(C)C(=O)CC4C3(O)C(OC(C)=O)C1(CC1C)C2=O (stereo unspecified)	6627
O=C1NCCc2onc(-c3ccc(Br)cc3)c21	4376
O=C(NC(c1ccccc1)c1ccc2ccccc2n1)C1CCN(Cc2ccc(Cl)c(Cl)c2)CC1 (stereo unspecified)	6012
C=CCNc1ncnc2c1ncn2[C@H]1CN(CCOC)C[C@@H](CO)O1	3384
COc1ccc(CN2C[C@@H](CO)O[C@@H](n3cnc4c(NCCN(C)C)ncnc43)C2)cc1	2890
COC(=O)CCC(C)C1CCC2C3C(OC(C)=O)CC4CC(O)CCC4(C)C3CC(O)C12C (stereo unspecified)	3297
O=C(Nc1cccc(-c2ccc(N3CCOCC3)nn2)c1)c1cccc(Cl)c1	3794
New compounds follow.
SMILES	Bead autofluor
CCN(CC)S(=O)(=O)c1ccc(C(=O)NC(=S)N2CCCCC2C)cc1 (stereo unspecified)	3881
OCCN1CCN(c2ncnc3c2ncn3[C@H]2CN(Cc3ccc(Cl)cc3)C[C@@H](CO)O2)CC1	2856
COc1cc(NC(=O)[C@H]2O[C@@H](n3cnc4c(N)ncnc43)[C@H](O)[C@@H]2O)cc(OC)c1OC	4197
CN(Cc1cn(Cc2ccc(C(F)(F)F)cc2)nn1)C1CN(Cc2cn(Cc3ccc(C(F)(F)F)cc3)nn2)S(=O)(=O)C1 (stereo unspecified)	5814
COc1cc(CN2CCC(C(=O)NC(c3ccc(F)cc3)c3ccc4ccccc4n3)CC2)cc(OC)c1 (stereo unspecified)	5021
CC(=O)Nc1cccc(-c2ccnc3c2CC(C)(C(=O)NCC2CC2)O3)c1 (stereo unspecified)	2923
O=C(NCc1ccc(Cl)nc1)c1csc(COCCO)n1	2797
COc1ccccc1Cc1c(-c2ccc(OC)c(OC)c2)nc2ccc(Br)cn12	5641
CCN(C(=O)CN1C(=O)S/C(=C\c2ccccc2Cl)C1=O)C1CCS(=O)(=O)C1 (stereo unspecified)	3785
CCOc1ccc(C(=O)COC(=O)Cn2[nH]c(=O)c3ccccc3c2=O)cc1	3434
COc1ccc(-c2cnc(C(O)c3ccc(-c4ccccc4)cc3)[nH]2)cc1 (stereo unspecified)	3868
CCN(CC)CCSC(=O)C(c1ccccc1)c1ccccc1	4337
OC(c1ccc(Cl)c(F)c1)c1ncc(-c2cccc(F)c2)[nH]1 (stereo unspecified)	3657
COC(=O)c1ccc2nc(-c3cccc(Cl)c3)c(Cc3ccsc3)n2c1	6178
CC1(c2nnnn2-c2ccc3c(c2)OCCO3)CCC(=O)N1Cc1ccc(F)cc1 (stereo unspecified)	6266
Brc1ccc2c(c1)CN(CC1CCCCC1)Cc1cnnn1-2	6357
COc1ccc(OC(=O)N(C)C[C@@H]2OCc3cnnn3CCCC(=O)N([C@@H](C)CO)C[C@@H]2C)cc1	3679
CC(C)C[C@H]1COc2cc(Br)ccc2S(=O)(=O)N1	3705
COC(=O)c1ccc2nc(-c3cccc(Br)c3)c(CC3CCCCC3)n2c1	7211
Nc1c(CNCc2nnn(Cc3ccccc3)c2N)nnn1Cc1ccccc1	2983
Nc1ccc2c(c1)C(=O)CCC2	3422
COc1ccc(-c2ccc(CN3C(CC(C)C)C(=O)N(Cc4cn(CCC5OCCCO5)nn4)CCS3(=O)=O)cc2)cc1OC (stereo unspecified)	3637
Nc1ccn(CCCN2CCN(Cc3cccc4ccccc34)CC2)c(=O)n1	3804
CCOC(=O)C1=C[C@@H](C(C)(C)C)N(S(=O)(=O)c2ccccc2C)[C@H]1c1ccc(Cl)cc1	6259
CCOC(=O)C(C(=O)c1ccccc1)C(c1ccccc1)c1nccc2ccccc12 (stereo unspecified)	4004

Sorted by molecular weight (smallest number first): 15 of the compounds above
SMILES	Bead autofluor
OC(c1ccc(Cl)c(F)c1)c1ncc(-c2cccc(F)c2)[nH]1 (stereo unspecified)	3657
CCN(CC)CCSC(=O)C(c1ccccc1)c1ccccc1	4337
O=C(NCc1ccc(Cl)nc1)c1csc(COCCO)n1	2797
Nc1ccn(CCCN2CCN(Cc3cccc4ccccc34)CC2)c(=O)n1	3804
COC(=O)c1ccc2nc(-c3cccc(Cl)c3)c(Cc3ccsc3)n2c1	6178
Nc1c(CNCc2nnn(Cc3ccccc3)c2N)nnn1Cc1ccccc1	2983
CCN(CC)S(=O)(=O)c1ccc(C(=O)NC(=S)N2CCCCC2C)cc1 (stereo unspecified)	3881
CC1(c2nnnn2-c2ccc3c(c2)OCCO3)CCC(=O)N1Cc1ccc(F)cc1 (stereo unspecified)	6266
COC(=O)c1ccc2nc(-c3cccc(Br)c3)c(CC3CCCCC3)n2c1	7211
CCN(C(=O)CN1C(=O)S/C(=C\c2ccccc2Cl)C1=O)C1CCS(=O)(=O)C1 (stereo unspecified)	3785
COc1cc(NC(=O)[C@H]2O[C@@H](n3cnc4c(N)ncnc43)[C@H](O)[C@@H]2O)cc(OC)c1OC	4197
COc1ccccc1Cc1c(-c2ccc(OC)c(OC)c2)nc2ccc(Br)cn12	5641
CCOC(=O)C1=C[C@@H](C(C)(C)C)N(S(=O)(=O)c2ccccc2C)[C@H]1c1ccc(Cl)cc1	6259
COc1ccc(OC(=O)N(C)C[C@@H]2OCc3cnnn3CCCC(=O)N([C@@H](C)CO)C[C@@H]2C)cc1	3679
CN(Cc1cn(Cc2ccc(C(F)(F)F)cc2)nn1)C1CN(Cc2cn(Cc3ccc(C(F)(F)F)cc3)nn2)S(=O)(=O)C1 (stereo unspecified)	5814

Next structures.
SMILES	Bead autofluor
O=C1NC[C@H](CCCCN2C[C@H](Cc3ccccc3)N(CCc3ccccc3)C(=O)C2=O)N(CCc2ccc(O)cc2)C1=O	5965
O=C(O)c1ccc(CN2C[C@@H](CO)O[C@@H](n3cnc4c(Nc5ccccc5)ncnc43)C2)cc1	3724
O=C(c1ccco1)N1CCN(C(=O)c2ccc(CS(=O)c3ccc(Br)cc3)o2)CC1 (stereo unspecified)	3415
CCOc1ccc(NC(=O)COC(=O)c2c[nH]c3ccccc23)cc1	3810
CNc1cncc(-c2ccc(O)cc2)n1	3442
Cc1cccc(C(O)c2ncc(-c3ccc(C(F)(F)F)cc3)[nH]2)c1C (stereo unspecified)	3826
COC(=O)C[C@H]1C[C@@H]2c3cc(NS(=O)(=O)c4cccc(OC)c4)ccc3O[C@@H]2[C@@H](CO)O1	3447
Cc1ccc(S(=O)(=O)N2CCCCC2)cc1NC(=O)COC(=O)c1cccc(O)c1	3739
Cc1ccc(S(=O)(=O)N2CCCc3ccccc32)cc1	2716
Cc1ccn2c(NC3CCCCC3)c(-c3ccc(SC4CCCCC4)cc3)nc2c1	8062
COc1cccc(C(C)(O)c2nc(-c3cccc4cccnc34)cs2)c1 (stereo unspecified)	3681
Nc1ncnc2c1ncn2[C@@H]1O[C@H](C(=O)N[C@@H](CO)c2ccccc2)[C@@H](O)[C@H]1O	4411
O=C(COC(=O)/C=C/c1ccc(F)cc1)NC(=O)NCc1ccccc1	3637
O=C(Nc1ccccc1Cl)c1cc(C2CCCN(C(=O)CCc3ccccc3)C2)on1 (stereo unspecified)	2854
O=C(c1ccoc1)N1CCN(c2cc(-c3ccco3)nc3cc(-c4ccccc4)nn23)CC1	3994
CC1(c2cccc(Br)c2)NC(=O)N(CC(=O)c2ccc3c(c2)OCO3)C1=O (stereo unspecified)	3659
OCC1OC(c2ccc(O)cc2O)C(O)C1O (stereo unspecified)	5926
O=C(NCc1ccccc1)c1cc(C2CCCCN2C(=O)c2ccc(Cl)cc2)on1 (stereo unspecified)	3790
COc1cc(CN2C(=O)C(Cc3ccccc3)ON=C2c2ncccc2C)cc(OC)c1 (stereo unspecified)	5471
O=C(NCc1ccco1)c1cccc(-c2ccc3nncn3c2)c1	3917
COC(=O)[C@H](CC(C)C)NC(=O)/C=C/[C@H]1O[C@@H](n2ccc(=O)[nH]c2=O)[C@H](O)[C@@H]1O	5694
COc1ccc(-c2ccc3c(c2)CN(C(=O)NC2CCCCC2)Cc2cnnn2-3)cc1	5934
COC(=O)CCN1CCC2CC1c1cc(N3CCCCC3)ccc12 (stereo unspecified)	4275
CCCNC(=O)C1(C)CCN(CCOc2ccc(Cl)cc2)C1 (stereo unspecified)	3981
CC1=C(C(=O)N(C(C)C)C(C)C)CC(CC(=O)NCCCN(C)C)C(=O)N1CCC1=CCCCC1 (stereo unspecified)	4355
More structures follow:
SMILES	Bead autofluor
C[C@H]1CN([C@@H](C)CO)C(=O)c2cc(-c3cccc(C#N)c3)cnc2O[C@H]1CN(C)C(=O)c1ccccn1	3368
Clc1ccc(CSc2nnc(-c3ccccn3)n2Cc2cccs2)cc1Cl	3603
Cc1nc2ccc(C(=O)NCCc3c[nH]c4ccccc34)cn2c1N(C)C(=O)CCc1ccccc1	3910
NC(Cc1ccc(F)cc1)c1csc(Nc2ccc(C(F)(F)F)cn2)n1 (stereo unspecified)	3521
O=C(O)c1ccc(CSCc2ccccc2)o1	3740
c1ccc(Cc2c(C3CCCCC3)nc3c4ccccc4ccn23)cc1	4327
CSc1ccc(CNC(=O)C2(C)CCN2C(C)C)cc1 (stereo unspecified)	3574
CCOC(=O)CC1COCCN1C(=O)c1cc(COc2ccccc2SC)on1 (stereo unspecified)	3471
COc1ccc(NC(=O)Nc2ccc3nc([C@@H]4O[C@H](CO)[C@@H](O)[C@H](O)[C@H]4O)[nH]c3c2)cc1OC1CCCC1	5533
CCC(CC)C(=O)N(C)c1c(C)nc2c(OCCOc3ccc(F)cc3)cccn12	3654
COc1ccc(CC(N)c2csc(NC(=O)c3cccc(OC(F)(F)F)c3)n2)cc1 (stereo unspecified)	2839
Cc1ccc(NC(=O)[C@H](Cc2ccccc2)NC(=O)CC[C@H]2O[C@@H](n3ccc(=O)[nH]c3=O)[C@H](O)[C@@H]2O)cc1C	5526
COc1ccc(-c2nc3cc(C)c(Br)c(C)n3c2CC2CCCCC2)cc1OC	6063
CCOC(=O)[C@]12CCC=C1N(Cc1ccc(Cl)cc1Cl)C(=O)[C@H](CC(=O)N1CCCC1)C2	5694
COc1ccc2c(CN(C)Cc3ccccc3)cc(=O)oc2c1	5663
O=C(NC(c1ccc(F)cc1)c1ccc2ccccc2n1)C1CCN(Cc2cccc(C(F)(F)F)c2)CC1 (stereo unspecified)	4050
CN(C)[C@H]1CCN([C@@H]2CS(=O)(=O)N[C@H]2COCc2ccccc2)C1	6098
CCCNC(=O)C1(C)CCN(C(=O)c2c(F)ccc(C)c2F)C1 (stereo unspecified)	3965
CC(CC(=O)c1ccccc1)=NCCCN=C(C)CC(=O)c1ccccc1	4125
CSc1ccc(CN2CCC(C)(Oc3cccc(Cl)c3)C2)cc1 (stereo unspecified)	2976
N/C(=N\C(=S)Nc1ccc2c(c1)OCO2)c1ccccc1	6117
O=C(NCCc1ccccc1)c1c[nH]c2ccccc2c1=O	3987
C[C@H]1CN([C@@H](C)CO)C(=O)CCCn2nncc2CO[C@@H]1CN(C)C(=O)Cc1ccccc1	3862
O=C(Nc1ccccc1)c1cccc2c(-c3cccnc3)coc12	3568
CC(=O)NC(C)(c1ccccc1)c1nc(-c2ccc(S(C)(=O)=O)cc2)cs1 (stereo unspecified)	3810
Next section
SMILES	Bead autofluor
O=C(c1ccccc1F)N1CCC2CC1c1cc(-c3ccc4c(c3)OCO4)ccc12 (stereo unspecified)	4375
CCOC(=O)C1CCCN(C(=O)/C=C/c2ccccc2)CC1 (stereo unspecified)	3143
c1ccc(Oc2ccc(-c3cc(NCCc4cccnc4)n4nccc4n3)cc2)cc1	4242
CC1C(c2ccccc2)OCCN1C(=S)Nc1ccc(S(=O)(=O)N2CCCCC2)cc1 (stereo unspecified)	3533
COc1ccc(F)cc1-c1cc(C(=O)NCc2ccc(C(F)(F)F)cc2)[nH]n1	3955
COc1ccccc1Cc1c(-c2ccco2)nc2ccc(Br)cn12	4521
Cc1ccc(S(=O)(=O)n2c(N)nc3cc(C)c(C)cc32)cc1	3446
COc1cccc(NC(=O)N(C)C[C@H]2OCc3cn(nn3)CCCC(=O)N([C@@H](C)CO)C[C@@H]2C)c1	3856
Cc1ccc(C)c(OCC(=O)N/N=C/c2ccc(N3CCOCC3)cc2)c1	4047
C[C@H](CO)NC(=O)c1[nH]cnc1C(=O)Nc1cccc(Cl)c1	3569

Only part of the results is shown. The share of hits here may be higher or lower than overall.
